# Screening data deposited in PubChem by several laboratories.
# UUG fidelity = modulators of yeast start codon fidelity, primary screen, whole organism, S. cerevisiae, single point, plate reader. S. cerevisiae UUG-firefly luciferase reporter, luminescence/redox ratio. activity score, % at 18.7 µM. 350,000 tested, 0.13% active. AID 602363, 2012;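 active = replicate mean at a twofold rise or more, about +100% in these data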;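 note: firefly luciferase made from a UUG start codon reports start codon fidelity; reporter light over untreated wells divided by growth signal over untreated wells; some hits fall short of that in this replicate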
# Rce1 inhib = yeast Rce1p protease inhibitors, primary screen, biochemical, fluorescence, cell-free homogeneous | calls only | AID 2563, 2010 | 290,000 tested, 0.27% active | yeast membranes, quenched prenylated peptide cleavage fluorescence;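 active = fall in fluorescence gain of 50% or more versus controls, with final raw signal at or below 3038400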;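 note: plate controls were neutral control wells for no effect and wells lacking membranes for full effect; tested at 10 µM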
# Target sequence (Q03530 whole entry, looked up): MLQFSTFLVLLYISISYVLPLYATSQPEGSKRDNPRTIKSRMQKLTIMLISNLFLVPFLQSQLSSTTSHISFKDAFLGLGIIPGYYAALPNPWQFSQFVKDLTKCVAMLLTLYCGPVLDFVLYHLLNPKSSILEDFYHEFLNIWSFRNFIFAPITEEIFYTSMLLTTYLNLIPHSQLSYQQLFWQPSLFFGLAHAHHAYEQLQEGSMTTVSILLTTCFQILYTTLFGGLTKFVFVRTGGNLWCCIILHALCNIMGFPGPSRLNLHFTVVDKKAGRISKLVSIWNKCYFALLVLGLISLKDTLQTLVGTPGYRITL
# MT1-MMP act inh = blockers of MT1-MMP proenzyme processing, primary screen, HT1080 RFP-PRO-GFP cells, GFP/RFP fluorescence | GFP/RFP ratio fluorescence, overnight; percent of plate control window, DMSO zero | GFP/RFP ratio change, % at 20 µM | 360,000 tested, 0.061% active | AID 651647, 2012;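 active = GFP/RFP ratio change of at least 30% with cell ATP level not reduced by more than half and red fluorescence within 50% of control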; note: strong numbers were not always called active
#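 Assay system: HT1080 RFP-PRO-GFP cells. Benchmarks: DMSO vehicle wells and RFP-L50D-GFP reporter cell wells. Times: overnight cell settling, then overnight compound exposure, 37 °C, 5% CO2. Compound: 20 µM single dose, 1% DMSO. Read-out basis: GFP/RFP fluorescence ratio.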
# CSC inhib = cancer stem cell viability inhibitors, primary screen, luminescence | cancer stem cell-like cells viability | inhibition, % at 7.5 µM | 300,000 tested, 1.1% active;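 active = mean at 75% or more and at least half the replicates too; tested in HMLE shEcad cells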;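 note: 0% = median of negative and 100% = median of positive control wells; the first replicate is given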
# PABP polyA inh = PABP poly(A) RNA binding inhibitors, primary screen, biochemical, fluorescence polarization, uHTS; Polyadenylate-binding protein 1 (Homo sapiens), P11940; AID 2014, 2009; 290,000 tested, 1% active; inhibition, % at 35 µM;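 active = 50% or more with normal probe brightness, or confirmed in later tests; about a fifth of its hits are not listed in these tables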;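 note: calls also rest on retests at 20 µM and on dose response follow-up; controls were probe without protein and protein plus probe with vehicle; some compounds called inactive have numbers as strong as hits; many hits fall short of the cut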
# Env fusion inh = inhibitors of HIV-1 Env-driven cell-cell fusion, primary screen, HeLa-JRFL effector, CEM21 target cells, luciferase; 360,000 tested, 1.1% active; inhibition, % at 12.3 µM; AID 651610, 2012;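 active = mean replicate inhibition score of at least 50 and every replicate individually at or above 50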;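 note: 0% = plate neutral controls and 100% = maraviroc near 300 nM; one replicate is shown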
# eIF4H inh = human eIF4H binding inhibitors, primary screen, translation initiation inhibitor project, biochemical, uHTS, fluorescence polarization; AID 2012, 2009; inhibition, % at 35 µM; eIF4H fluorescence polarization binding assay; 290,000 tested, 0.94% active;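 active = 50% or more with normal probe brightness, or confirmed in later tests; about a fifth of its hits are not listed in these tables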;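 note: calls also rest on retests at 20 µM and on dose response follow-up; 0% = protein and probe with vehicle and 100% = probe without protein; strong numbers were not always called active; many hits fall short of the cut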
# eIF4H inh retest = further read-out of eIF4H inh, marked with its call; inhibition, %; compound at 20 µM; confirmation average;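 mean of two retest wells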
# PABP polyA inh retest = also measured in PABP polyA inh; calls as there; inhibition, %; compound at 20 µM; confirmation repeats;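 mean of two retest wells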
# MT1-MMP act inh RFP = second read-out of MT1-MMP act inh, no call of its own (marks repeat the call); RFP signal change, %; measured here: RFP expression control read;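 0 = vehicle wells; hits needed this value within 50% of zero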
# An asterisk follows results filed as active; i = inactive; . = no result given. Hits appear at their usual frequency (roughly 2.9% active in at least one column).
# Sample of the layout (two entries):
SMILES,UUG fidelity,Rce1 inhib,MT1-MMP act inh,MT1-MMP act inh RFP,CSC inhib,PABP polyA inh,Env fusion inh,eIF4H inh,others
Cc1[nH]c2ccccc2c1C(=O)COC(=O)c1ccc2c(=O)n3c(nc2c1)CCC3,-10.4,i,-1.3,7.1,2.1,-6.6,1.6,-2.7,
CC(C)Sc1nc(N)nc2c1ncn2C1OC(CO)C(O)C1O (stereo unspecified),12.0,.,-0.3,3.5,.,.,1.3,.,

# All compounds of this part, previewed entries included:
SMILES,UUG fidelity,Rce1 inhib,MT1-MMP act inh,MT1-MMP act inh RFP,CSC inhib,PABP polyA inh,Env fusion inh,eIF4H inh,others
Cc1[nH]c2ccccc2c1C(=O)COC(=O)c1ccc2c(=O)n3c(nc2c1)CCC3,-10.4,i,-1.3,7.1,2.1,-6.6,1.6,-2.7,
CC(C)Sc1nc(N)nc2c1ncn2C1OC(CO)C(O)C1O (stereo unspecified),12.0,.,-0.3,3.5,.,.,1.3,.,
CCCCN(CCCNC(=O)CN1C(=O)COc2ccccc21)c1ccccc1,-6.2,i,1.0,-7.4,.,0.9,26.5,-1.5,
CC(O)CNC(=S)Nc1ccccc1 (stereo unspecified),-3.9,i,-2.7,1.4,-22.1,-2.0,7.4,-3.9,
c1ccc(-c2ccc(OCCN3CCOCC3)cc2)cc1,-4.5,i,3.5,2.4,5.7,27.2,-45.6,0.4,
CC(=O)CSc1nsc(SCC(C)=O)c1C#N,-24.5,i,1.9,24.2,-2.4,-4.9,.,2.3,
CCOc1ccc(S(=O)(=O)N(CC)CC(=O)NCc2ccccn2)cc1C,-18.9,i,7.9,4.6,11.4,-4.7,-1.9,-5.6,
Cc1ccc(C)c(NC(=O)CN(C)C(=O)c2ccc(Cl)nc2)c1,-14.8,i,0.6,0.1,.,-0.8,16.8,-5.0,
Cc1ccc(S(=O)(=O)N2CCN(C(=O)CN3CCN(c4ccc(O)cc4)CC3)CC2)cc1,-11.1,.,-7.6,-1.4,.,.,-8.3,.,
O=C(c1ccccc1NS(=O)(=O)c1ccc(F)cc1)N1CCOCC1,-10.9,i,0.0,1.2,-3.4,5.5,-29.0,-2.9,
CCc1c(C)[nH]n(CCC#N)c1=O,-14.0,i,5.9,5.2,-11.9,15.6,-19.2,-11.4,
CC(=O)c1ccc(N2CCN(C(=O)c3n[nH]c4ccccc34)CC2)cc1,.,i,4.1,-1.8,9.9,-10.8,-2.3,3.6,
O=C1N/C(=C/c2ccc(Br)cc2)C(O)=C1C=NCc1ccccc1,.,i,-0.1,-6.9,56.4,7.4,-7.7,1.5,
O=C(c1cc2nc(-c3cccs3)cc(C(F)(F)Cl)n2n1)N1CCCc2ccccc21,-9.1,i,-1.7,-5.2,22.0,18.4,23.7,-7.7,
Cc1ccc(Oc2nc3ccccc3n3c(C)nnc23)cc1,-16.9,i,3.6,-2.7,-11.6,4.6,-114.9,5.2,
c1ccc(CCN2CN=C(Nc3nc4ccccc4s3)NC2)cc1,.,i,3.0,-0.4,20.2,2.0,-8.5,9.6,
Cc1cn(CC(C)C)c(=O)n(-c2ccccc2)c1=O,-10.6,.,-0.3,0.7,.,.,1.9,.,
Cc1noc(C)c1C(=O)OCC(=O)C12CC3CC(CC(C3)C1)C2,-16.4,i,-5.0,0.5,-3.0,-8.7,11.8,17.7,
COc1ccc(NC(=S)N2CCCC2)c(OC)c1,-22.9,i,-0.5,4.3,-2.4,-17.7,16.7,-13.1,
Cc1ccc(SC[C@H](Cc2ccccc2)N2CC[C@@H](NC(=O)OCc3ccccc3)CCC2=O)cc1,.,i,.,.,27.5,-14.0,.,-16.8,
COc1cc(C(=O)NCc2nnc(SCC(=O)N3CCC(C)CC3)o2)cc(OC)c1OC,0.7,i,7.0,-8.6,-9.8,-0.5,15.2,-6.8,
CC(=O)c1ccc(C(=O)N2CCCC(C(=O)c3cc(F)ccc3F)C2)s1 (stereo unspecified),-5.4,i,0.0,0.1,-4.4,-10.3,25.5,-8.8,
COc1ccc(N(CC(=O)Nc2cccc3ccccc23)S(C)(=O)=O)c(OC)c1,-12.9,i,1.9,2.3,.,9.4,4.7,-1.0,
COc1cc(OC)cc(C(=O)NC(=S)NNC(=O)c2cnccn2)c1,-39.1,i,5.2,-0.8,106.0*,-9.3,.,8.1,
COc1ccc(OC)c(S(=O)(=O)NCCOC23CC4CC(CC(C4)C2)C3)c1,1.2,i,4.6,-9.1,60.5,4.4,.,-1.3,
CN(Cc1ccc(-n2cccn2)cc1)Cc1nc(-c2cnccn2)no1,.,i,-3.3,-4.1,-0.8,1.5,0.1,-2.4,
O=C(NCC1CCN(Cc2ccc(F)cc2)CC1)Nc1cc(F)ccc1F,-2.5,i,-1.5,-1.2,-11.9,6.2,3.2,8.6,
C[N+](C)(CCOc1ccccc1)Cc1ccccc1,-15.6,.,1.3,5.0,.,.,-121.0,.,
COc1ccc(N2CCN(CC(O)COC(c3ccc(F)cc3)c3ccc(F)cc3)CC2)cc1 (stereo unspecified),13.4,i,-1.9,-5.7,-1.2,-0.7,-7.0,9.4,
Cc1ccc(NS(=O)(=O)c2ccc(C(=O)OCC(=O)N3CCCCC3)cc2)cc1,0.2,.,-1.3,-0.8,.,.,-5.3,.,
Cc1csc(=O)n1CC(=O)OCC(=O)NCc1ccccc1,.,i,-0.6,1.6,-12.0,.,-4.4,.,
COCCCn1c(SCC(=O)NC2CCCC2)nnc1-c1ccncc1,-7.1,i,-1.3,0.4,-8.4,-5.7,-1.6,9.9,
O=C(CNC(=O)c1ccc(Br)o1)NNC(=O)c1ccccc1O,-22.8,.,4.5,4.0,0.6,.,-7.7,.,
Cc1c(NC(=O)C2CC(c3ccc(F)cc3)=NO2)c(=O)n(-c2ccccc2)n1C (stereo unspecified),-22.7,i,1.0,-0.3,-9.5,-0.6,3.4,0.9,
O=C(O)c1ccc(CSc2nnc(-c3ccncc3)n2CC2CCCO2)cc1 (stereo unspecified),-17.4,i,-0.2,-7.1,-15.6,76.6,-36.0,3.7,eIF4H inh retest=-7.7;PABP polyA inh retest=7.1
CCOCCCNC(=O)c1ccc(OC)cc1,-2.9,.,-1.9,4.0,-9.3,6.6,-94.9,-1.2,
CN1CCN(S(=O)(=O)c2ccc(C(=O)Nc3ccccc3)cc2)CC1,-5.6,i,0.8,4.0,-4.5,2.4,-63.3,-3.8,
O=C(c1ccc(CNS(=O)(=O)c2ccc(Br)cc2)cc1)N1CCCC1,.,i,-2.7,2.0,-6.4,-15.1,-11.4,-6.5,
CC(=O)c1ccccc1NC(=O)Cn1c(=O)cnc2ccccc21,-26.4,i,-3.5,1.1,-5.2,2.9,7.6,3.3,
O=C(N/N=C\c1ccc(Cl)s1)C1COc2ccccc2O1 (stereo unspecified),-1.0,.,0.7,3.8,-4.0,-4.0,-33.3,3.8,
C#CCN(C[C@@H]1[C@@H](OC(=O)Nc2cccs2)[C@@H](OC(=O)Nc2cccs2)Cn2c(=O)n(CCCCCC)c(=O)n21)S(=O)(=O)c1ccc(C)cc1,-10.6,.,-0.8,-2.4,.,.,-18.8,.,
CC(C)NC(=O)CSc1nnc(-c2ccc3ncccc3c2)n1C,-0.8,i,0.4,3.9,-9.2,9.2,5.0,-3.7,
CC(C)N(Cc1nnc(-c2ccc(Cl)cc2)o1)C(=O)C1=COCCO1,-13.5,i,-3.5,-2.5,-4.7,.,-17.5,.,
O=C(COC(=O)C1CCCN1C(=O)c1cccs1)Nc1ccc2c(c1)OCO2 (stereo unspecified),1.3,i,4.4,3.4,-2.5,-1.6,.,3.7,
COc1cc(/C=C/C(=O)OCC(=O)Nc2c(C)n(C)n(-c3ccccc3)c2=O)ccc1O,4.7,i,1.9,1.7,-1.7,3.8,-7.0,-3.2,
C#CCOCCOCCOCCNc1nc(N2CCN(C(=O)CCCCCCCCCCNC(=O)Cn3cc(C[C@@H](C)O)nn3)CC2)nc(N2CCN(C(=O)CCCCCCCCCCNC(=O)[C@H](CO)n3cc(CCCSC)nn3)CC2)n1,-9.7,.,24.2,3.7,37.2,.,32.3,.,
CCOC(=O)N1CCN(C/C(C)=C/c2ccccc2)CC1,-14.8,i,5.3,9.3,-1.6,40.3,-40.8,-3.1,
O=C(CSC1=NCCS1)Nc1ccccc1F,-6.2,.,0.0,-0.3,2.4,0.4,.,-0.7,
CN(C)S(=O)(=O)c1ccc(N2CCCC2)c(C(=O)Nc2ccc(Br)cc2F)c1,-3.0,i,1.7,-4.8,-1.5,.,32.5,.,
COc1ccc(-c2nc(-n3c(C)c(C(C)=O)c(C(C)=O)c3C)sc2C)cc1OC,-12.5,i,2.6,-1.4,-1.8,0.6,-5.4,1.8,
COc1ccc(Cl)cc1-c1cc(C(=O)NC2CCCCC2)[nH]n1,2.2,.,-10.1,-16.7,.,.,-34.6,.,
CCCNC(=O)C(Cc1ccc(I)cc1)NC(=O)c1ccc(C#N)cc1 (stereo unspecified),-6.4,.,-2.3,-3.7,-14.9,.,-10.8,.,
COc1cc(CNCc2cccnc2)ccc1OCC(=O)NC1CCCCC1,-2.9,i,-1.1,1.7,-17.1,18.6,10.2,-0.4,
CCOc1ncccc1C(=O)OCC(=O)NC1CCCCC1,-7.1,.,-2.1,1.0,-4.8,.,2.9,.,
Cc1ccc(C)c(OCC(=O)NCC(C)C)c1C,.,i,4.0,9.8,9.3,6.4,11.7,4.3,
O=C(NCCN1CCCCC1)Nc1ccc(F)cc1F,1.5,i,4.0,6.5,0.8,-2.8,5.5,-18.7,
CCC(C)(C)NC(=O)C(c1ccc(F)cc1)N(Cc1ccco1)C(=O)c1cnccn1 (stereo unspecified),-3.9,i,-3.9,1.4,-0.1,5.2,.,-4.0,
CCCSc1nc2c(cnn2-c2ccccc2)c(=O)n1N,-20.9,i,0.1,-2.0,-1.7,-9.2,-46.6,-5.4,
COc1ccc(C(=O)Oc2ccc(N(C)S(=O)(=O)c3ccccc3)cc2)cc1[N+](=O)[O-],-18.5,i,-3.3,1.2,-9.4,-1.2,11.3,2.1,
O=C(O)CCCC(=O)Nc1ccc(N=Nc2ccccc2)cc1,.,i,-1.8,-5.5,-3.5,4.2,-19.8,6.6,

# Other results.
SMILES,UUG fidelity,Rce1 inhib,MT1-MMP act inh,MT1-MMP act inh RFP,CSC inhib,PABP polyA inh,Env fusion inh,eIF4H inh,others
CC1CCC2C(=O)N(c3ccc(C(=O)NCc4ccccc4)cc3)C(=O)C2C1 (stereo unspecified),-4.4,i,0.4,5.4,16.9,2.8,9.0,0.7,
CC/C(=N\NC(=S)NC(C)C)c1ccc(OC)c(OC)c1,.,i,-0.8,1.1,-8.7,16.2,-0.6,7.3,
O=C(Cc1ccc(F)cc1)N[C@@H]1c2ccccc2CC[C@@H]1O,-4.3,.,-2.4,0.4,.,.,-11.6,.,
O=C(Nc1cc(-c2nc3ncccc3o2)ccc1Cl)c1cccs1,-12.4,i,2.9,2.1,3.1,0.0,4.7,2.9,
O=C(NC(=S)Nc1ccc(CN2CCOCC2)cc1)c1ccc([N+](=O)[O-])cc1Cl,.,i,-0.9,-1.5,16.4,-4.8,26.9,-4.4,
Fc1ccc(C(c2nnnn2C2CCCC2)N2CCN(Cc3ccncc3)CC2)cc1 (stereo unspecified),-15.8,i,-1.9,0.3,0.5,-3.2,.,16.2,
CC(=O)N1CCc2c(sc(NC(=O)c3ccc([N+](=O)[O-])o3)c2C#N)C1,-10.2,i,11.1,-14.4,.,7.4,i,3.9,
Cc1nn(C)c(C)c1C(=O)NN,-12.4,i,-1.2,0.1,8.5,44.3,-2.1,-5.8,
